Screening results as filed in PubChem BioAssay.
gsp ag = qHTS for Agonist of gsp, the Etiologic Mutation Responsible for Fibrous Dysplasia/McCune-Albright Syndrome: qHTS; gsp mutant cells, cAMP HTRF, 30 min; control for the full effect not named in the record; Potency, µM (highest dose often 76.9 µM), for inactives: top-dose activation (cAMP increase), actives largely listed as activators; 340,000 compounds, 0.13% hits; AID 624287, 2012; active = well fitted activation curve with a large enough effect; inconclusive = small, poorly fitted or top-dose-only effect, or another doubt; inactive = no such curve, though single readings can be large or run the other way; cell line not stated here;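 further: phosphodiesterase inhibitor Ro 20-1724 added with compounds to block cAMP breakdown; potency means the concentration at half of the fitted maximal effect; nearly all actives have a fitted effect of over 60% in size; about a fifth of the inactives were tested at one dose only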
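Cells stably selected in G418 were plated at 2000/well, grown 16-24 hr, then given compounds in DMSO with the PDE inhibitor […] (300 uM solution added) for 30 min at 37C; cAMP was read by HTRF.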
Menin MLL FP FL = qHTS Assay for Inhibitors Targeting the Menin-MLL Interaction in MLL Related Leukemias: Competition With Fluorescein Labeled MLL-derived Peptide. Fluorescence polarization, fluorescein-MLL peptide displacement from menin. FP activity change, % at 61.4 µM. 290,000 tested, under 10 active. AID 1766, 2009; inconclusive = falling polarisation curve, or a change in total fluorescence; inactive = total fluorescence flat and polarisation flat or rising; no compound was filed as active; the % refers to the polarisation; negative = inhibition;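 further: % of control where 0% means no effect; inhibitors lower the polarisation; unlabelled MLL peptide was the positive control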
PINK1 expr mod = A Quantitative High throughput Screen to Identify Chemical Modulators of PINK1 Expression; 410,000 compounds, 0.2% hits; PINK1 immunofluorescence, high-content cytometry, 24 h; Potency, µM (series often up to 76.6 µM), inactives show top-dose activation (PINK1 increase), most hits filed as activators; AID 624263, 2012; active = well fitted activation curve with a large enough effect; inconclusive = small, poorly fitted or top-dose-only effect; inactive = flat fitted curve, though single readings scatter; cell line not stated here;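 further: potency means the concentration at half of the fitted maximal effect; % of control where 0% means no effect; nearly all actives have a fitted effect of over 65% in size; a mitochondrial uncoupler was the plate control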
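Stable cell line treated 24 h with compounds at 5 concentrations (CCCP controls), then fixed and immunostained for PINK1 plus nuclear and cell stains; PINK1 immunofluorescence quantified by laser-scanning microplate cytometry.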
gsp antagonist = qHTS for Antagonists of gsp, the Etiologic Mutation Responsible for Fibrous Dysplasia/McCune-Albright Syndrome: qHTS; gsp-mutant cells, cAMP HTRF, 30 min; control for the full effect not named in the record; Potency, µM (titrated, usually from 76.9 µM), for inactives: at the highest dose activity change, negative = inhibition, most hits filed as inhibitors; 340,000 compounds, 0.4% hits; active = falling curve of any shape with a large fitted effect; inconclusive = falling curve, mostly with a smaller effect; inactive = flat or rising curve; cell line not stated here;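 further: intracellular cAMP measured with PDE inhibitor Ro 20-1724 present during compound exposure; potency means the concentration at half of the fitted maximal effect; on the % scale 0 is the no-effect control and ±100 the full control effect; nearly all actives have a fitted effect of over 65% in size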
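Cells, 2000/well, grown 16–24 h in DMEM 10% FBS with 0.5 mg/ml G418, then compounds plus […] (300 uM addition stock), 30 min at 37C. cAMP read by HTRF (cAMP-d2 and anti-cAMP antibody-K in lysis buffer) after 30 min RT.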
Sfp inh = qHTS Assay for Inhibitors of Bacillus subtilis Sfp phosphopantetheinyl transferase (PPTase); 4'-phosphopantetheinyl transferase ffp (Bacillus subtilis), Q9F4F7; Biochemical Sfp PPTase activity, qHTS; Potency, µM, for the others: max response, negative = inhibition, most hits filed as inhibitors; 310,000 compounds, 3.5% hits; active means well fitted inhibition curve with a large enough effect; inconclusive means small, poorly fitted or top-dose-only effect, or another doubt; inactive means no such curve, though single readings can be large or run the other way;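 further: the enzyme is Sfp with the accession as filed and its product quenches rhodamine fluorescence; potency means the concentration at half of the fitted maximal effect; 0% = enzyme reaction without inhibitor and -100% = no enzyme wells; top concentration of the series not given in the record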
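Fluorescence-quenching assay with 15 nM Sfp, 5 uM rhodamine-CoA and 12.5 uM BHQ-2-labelled ybbR peptide in pH 7.6 Hepes/MgCl2 buffer. Enzyme was pre-incubated with compound for 15 min at room temperature. Rate was taken from the 30-min fluorescence change (525/598 nm).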
D2 ag = Beta-Arrestin HTS for Positive Allosteric Modulators of the Human D2 Dopamine Receptor: Agonists | D(2) dopamine receptor (Homo sapiens), P14416 | DiscoveRx PathHunter D2 beta-arrestin, luminescence, 90 min; 100% = 57 uM dopamine signal | activation, % (test concentration not listed) | 360,000 compounds, 0.084% hits; in the data active = activation above about 40%; inconclusive = about 15% to 40%; inactive = below about 15%; further: compound concentration not given in the record; the text of the record calls up to 30% inactive
Target sequence (P14416 whole entry, looked up): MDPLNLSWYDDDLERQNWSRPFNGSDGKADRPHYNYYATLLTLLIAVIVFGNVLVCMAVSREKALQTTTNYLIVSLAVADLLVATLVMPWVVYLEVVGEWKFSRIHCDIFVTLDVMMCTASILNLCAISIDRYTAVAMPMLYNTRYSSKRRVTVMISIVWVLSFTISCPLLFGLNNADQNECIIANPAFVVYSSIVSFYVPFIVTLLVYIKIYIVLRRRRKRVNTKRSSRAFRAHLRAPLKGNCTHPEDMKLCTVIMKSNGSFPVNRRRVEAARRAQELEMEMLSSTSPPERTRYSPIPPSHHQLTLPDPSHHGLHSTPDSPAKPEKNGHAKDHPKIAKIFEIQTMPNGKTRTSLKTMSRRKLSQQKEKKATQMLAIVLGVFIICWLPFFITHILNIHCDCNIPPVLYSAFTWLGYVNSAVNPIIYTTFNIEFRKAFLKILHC
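Agonist mode: compounds alone added to overnight-plated D2 PathHunter cells for 90 min at 37 C, with 57 uM final dopamine (EC100) defining full response. Beta-arrestin recruitment detected by chemiluminescent reagent, read after 1 h at ambient temperature.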
ClpP mod = qHTS Assay for Activators of ClpP | ATP-dependent Clp protease proteolytic subunit (Bacillus subtilis (strain 168)), P80244 | purified B. subtilis ClpP, FRET peptide cleavage, 20 min | Potency, µM (titrated, usually from 57.5 µM), inactives show top-dose activity change, negative = active | 340,000 compounds, 1.9% hits | AID 651965, 2013; active = well fitted falling curve with a large enough effect; inconclusive = small, poorly fitted or top-dose-only effect; inactive = no such curve, though single readings can be large or run the other way; further: potency means the concentration at half of the fitted maximal effect; the source files actives as falling curves though it sought activators and does not explain the sign; nearly all actives have a fitted effect of over 65% in size; many hits overshoot -100%
Target sequence (P80244 whole entry, looked up): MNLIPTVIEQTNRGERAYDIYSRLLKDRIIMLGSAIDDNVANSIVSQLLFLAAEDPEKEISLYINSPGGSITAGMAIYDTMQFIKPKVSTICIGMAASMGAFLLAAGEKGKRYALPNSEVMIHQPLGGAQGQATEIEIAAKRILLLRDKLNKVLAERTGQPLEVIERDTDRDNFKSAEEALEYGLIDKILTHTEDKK
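ClpP 10 microg/mL final, pH 8 Tris/KCl buffer with BSA, glycerol, Tween-20; compound pinned in; FRET-FV substrate; RT 20 min; Ex320/Em430; ΔFRET vs ADEP 5.8 microM, DMSO, no enzyme.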
* marks the source's active call; other numbers are inactive results; ? = inconclusive; · = no result given; & = joins results of further samples; [ ] = another dose, or the depositor's remark. Compounds as they come; about 5.1% have a hit in one of these screens.

Every second line gives: PINK1 expr mod, Menin MLL FP FL, D2 ag, ClpP mod, gsp antagonist, gsp ag, Sfp inh
O/N=C(\Cn1ccnc1)c1ccccc1
  0.5%, ·, -1.7, ·, 7%, 1%, ·
COc1ccc(C(=O)Nc2ccc3[nH]c(-c4cccc(OC)c4)cc(=O)c3c2)cc1
  15%, -1.8&4.9, -1.8, 4.3%, 7%, -11%, 4%&16%
O=C(NCC1CCCCC1)c1ccc(F)cc1Cl
  3.4%, -0.6, 0.1, 0.2%, 8%, -2%[15.4 µM], -1%
CSc1nc2ccccc2cc1/C=C(\C#N)c1cccc(Cl)c1
  0.2%, 1.6, -3.0, -12%, 11%, 26%, -14%
CCCCN(C)C(=O)c1ccc(CS(=O)(=O)c2ccccc2C)o1
  0.5%, -0.5, -1.8, 0.5%, 3%, -14%, 16%
O=C(O[C@@H]1OC2COC(=O)c3cc(O)c(O)c(O)c3-c3c(cc(O)c(O)c3O)C(=O)O[C@@H]([C@H]1O)[C@@H]2O)c1cc(O)c(O)c(O)c1
  -0.6%, 0.4, 0.3, -2.5%, -3%, ·, 4.5µM*
CCOC(=O)c1c(C)[nH]c(C)c1C(=O)COC(=O)/C=C/c1cccc([N+](=O)[O-])c1
  2.3%, ·, 2.6, 1.0%, ·, -66%[inhibitor], ·
O=C(CSc1ccc(-c2ccco2)nn1)N1CCCCCC1
  -1.5%, -1.9, -1.6, ·, 2%, 1%[15.4 µM], -58%
Cc1cc(C(=O)N/N=C/c2cc(Br)ccc2OC(=O)c2ccccc2)n[nH]1
  6.7%, 2.9, -3.6, -9.3%, 1%, 21%, -6%
O=C(CCCCCN1C(=O)c2ccccc2C1=O)Nc1ccc(S(=O)(=O)N2CCCCC2)cc1
  -0.5%, 1.9, 2.7, -0.4%, -10%, 9%, 7%
COc1ccc(C2=NS(=O)(=O)N(C)C(C(=O)Nc3cc(C)ccc3O)=C2)cc1OC
  2.3%&-0.5%, -1.3, 9.1, 0.3%&-0.1%, -26%, -12%, 16%
O=C(Nc1ccc2nsnc2c1)C1CC1
  -1.8%, -7.3, -1.5, ·, 7%, -6%[15.4 µM], 6%
C/C(CCc1ccccc1)=N/NC(=O)C(=O)NC(C)c1ccccc1 (configuration not stated)
  0.4%, 0.4, 6.0, ·, 17%, -5%[15.4 µM], 6%
CCN1C(=O)[C@H]2[C@@H](c3ccc(OC)cc3)N3C(=O)CN(CC4CC4)C(=O)[C@@]3(C)[C@H]2C1=O
  1.8%, -0.4, -0.1, -3.6%, 9%, ·, 8%
Cc1ccc(C(O)c2ncc(-c3cccc(C(F)(F)F)c3)[nH]2)c(C)c1 (configuration not stated)
  21%, ·, 13, -1.3%, ·, ·, ·
CCc1c(C)nc2c(OC)cccc2c1SCCC(=O)O
  1.5%, 4.9, 1.3, ?, 0%, -9%, -11%
CCOC(=O)C1(CCOc2ccccc2)CCN(Cc2cc(OC)c(O)c(OC)c2)CC1
  -1.7%, 0.2, -0.9, -0.4%, -6%, -56%[inhibitor], 5%
COc1cccc(NC(=O)Cn2nnc(C(=O)Nc3ccccc3)c2N)c1
  6.3%, 2.8, -2.9, -7.0%, -10%, ?, 14%
COC(=O)c1c(NC(=O)c2ccccc2C(=O)O)sc2c1CCCC2
  1.7%&1.6%, ·, -2.0, 0.6%&-3.8%, ·, -9%, ·
CCCCCCC1CC(C)(C(=O)CNc2nncs2)OC1=O (configuration not stated)
  1.1%, 2.6, -3.8, ·, 2%, 8%[15.4 µM], -2%

Records listed so far that bear a hit mark in Sfp inh:
Structure | PINK1 expr mod | Menin MLL FP FL | D2 ag | gsp antagonist | gsp ag | Sfp inh
O=C(O[C@@H]1OC2COC(=O)c3cc(O)c(O)c(O)c3-c3c(cc(O)c(O)c3O)C(=O)O[C@@H]([C@H]1O)[C@@H]2O)c1cc(O)c(O)c(O)c1 | -0.6% | 0.4 | 0.3 | -3% | · | 4.5µM*

Some of these compounds in order of formula weight, rising:
Every second line gives: PINK1 expr mod, Menin MLL FP FL, D2 ag, ClpP mod, gsp antagonist, gsp ag, Sfp inh
CCCCN(C)C(=O)c1ccc(CS(=O)(=O)c2ccccc2C)o1
  0.5%, -0.5, -1.8, 0.5%, 3%, -14%, 16%
COc1ccc(C2=NS(=O)(=O)N(C)C(C(=O)Nc3cc(C)ccc3O)=C2)cc1OC
  2.3%&-0.5%, -1.3, 9.1, 0.3%&-0.1%, -26%, -12%, 16%
CCOC(=O)C1(CCOc2ccccc2)CCN(Cc2cc(OC)c(O)c(OC)c2)CC1
  -1.7%, 0.2, -0.9, -0.4%, -6%, -56%[inhibitor], 5%
O=C(O[C@@H]1OC2COC(=O)c3cc(O)c(O)c(O)c3-c3c(cc(O)c(O)c3O)C(=O)O[C@@H]([C@H]1O)[C@@H]2O)c1cc(O)c(O)c(O)c1
  -0.6%, 0.4, 0.3, -2.5%, -3%, ·, 4.5µM*

Later entries.
Every second line gives: PINK1 expr mod, Menin MLL FP FL, D2 ag, ClpP mod, gsp antagonist, gsp ag, Sfp inh
OC(COc1ccccc1)Cn1c2ccccc2c2ccccc21 (configuration not stated)
  8.7%, -0.7, -0.9, 1.1%, -6%, 3%, 8%
Cn1ncc(Br)c1NC(=O)Nc1ccc(Cl)cc1
  1.5%, -3.9, -11, 1.4%, 4%, ?, 15%
CCN1C(=O)C2C(c3ccccc3F)NC(Cc3ccc(O)cc3)(C(=O)OC)C2C1=O (configuration not stated)
  -3.1%, 1.1, 0.0, -1.0%, -19%, -9%, 17%
COCCn1c(=O)c(-c2cccs2)nc2cnc(N3CCNCC3)nc21
  1.1%, ?, ·, ·, ·, ·, -11%
O=C(CN1C2=NCCCN2c2ccccc21)c1ccc([N+](=O)[O-])cc1
  0.9%, -8.8, -2.6, 0.5%, 10%, 19%, -14%
CCCCOC(=O)C1Cc2ccccc2C(=O)O1 (configuration not stated)
  0.0%, -6.2, 0.2, -1.2%, -14%, -14%, 9%
O=C(Nc1cccc(Cl)c1)N(CCN1CCOCC1)Cc1ccccc1F
  ·, 5.3, 0.1, -2.1%, -11%, ?, 4%
Cc1sc(NC(=O)c2ccco2)c(C(c2cccnc2)N2CCN(C)CC2)c1C (configuration not stated)
  -0.6%, -5.3, -2.7, -4.3%, -3%, -6%, -1%
COc1ccccc1NC(=O)CC(NC1CCCCC1)C(=O)O (configuration not stated)
  -1.1%, 1.0, 0.2, -2.1%, 8%, -8%, -1%
CCSc1nnc(NC(NC(C)=O)(C(F)(F)F)C(F)(F)F)s1
  0.6%, -0.5, -2.4, 0.7%, -2%, 4%, 9%
O=C(COC(=O)COc1cccc(Br)c1)Nc1ccc(F)cc1F
  -0.4%, ·, 5.7, 2.6%, 17%, -33%[inhibitor], ·
CCc1nc2ccc(C(=O)NCc3ccc4c(c3)OCO4)cn2c1N(CC)CCN(C)C
  -0.7%, ·, 1.9, 0.5%, ·, ·, ·
CC(=C/C(=O)O)/C=C/c1ccc([N+](=O)[O-])cc1
  5.6%, 7.1, -4.6, 0.6%, -10%, -20%[15.4 µM], 7%
CCOC(=O)c1csc(-c2ccc(OC)c(OC)c2)n1
  0.6%, -2.3, 2.1, ·, 4%, 22%, 16%
COc1ccc(NC(=O)CSc2nnc(-c3ccccc3C)n2N)cc1OC
  3.0%, 4.4, -0.8, 0.9%, 5%, -36%[inhibitor], 1%
COc1ccccc1OC(C)C(=O)N1CCc2ccccc21 (configuration not stated)
  1.1%, ·, -1.6, 0.2%, -6%, ?, ·
COc1ccc(/C=C2\SC(=N)N(c3ccc(F)cc3)C2=O)cc1
  4.6%, 7.2, -5.0, ·, 13%, -3%[15.4 µM], 33%[activator]
O=C(NCc1cccs1)C1CCC(CNS(=O)(=O)c2cccs2)CC1 (configuration not stated)
  -0.3%, 3.5, -0.3, 1.0%, 5%, -9%, 5%
CCOc1ccccc1NC(=O)CSc1nnc(-c2ccncc2)o1
  3.0%, ·, -5.6, ·, 8%, 12%[15.4 µM], ·
CC(C)(C)c1ccc(-n2nc(C#N)c(Cl)cc2=O)cc1
  -4.0%, -2.2, -2.3, ·, 8%, 5%, -16%
CN(CC(=O)Nc1ccccc1Sc1ccccc1)C1CCCCC1
  ?, 0.8, 7.6, ·, -5%, -5%[15.4 µM], -18%
CCC(=O)Nc1ccc(NC(=O)/C=C/c2ccc(Cl)cc2)cc1
  4.0%, 11, -2.4, -7.8%, -5%, 24%, 9%
COc1ccc(NS(=O)(=O)c2ccc(N3CCCCC3)c(NC(=O)C(C)NC(N)=O)c2)cc1 (configuration not stated)
  -0.8%, ·, 2.8, -1.0%, 8%, 0%, ·
CN(Cc1nccs1)C(=O)c1cc(COc2cccc3cnccc23)on1
  0.6%, ·, 6.7, 4.7%, ?, -10%, 17%
CCS(=O)(=O)C(C)(CCl)C(=O)Nc1ccc(C(=O)OC)cc1 (configuration not stated)
  1.4%, 3.1, 0.3, -0.7%, -11%, 2%[15.4 µM], 9%
CS(=O)(=O)N1CCN(c2ccc(NC(=O)c3ccc(-c4ccc(Cl)cc4)o3)cc2)CC1
  14µM*, 0.0, 0.3, -9.7%, 5%, -13%, 11%
O=C(Nc1nnc(C23CC4CC(CC(C4)C2)C3)s1)c1ccco1
  3.1%, -0.4, -2.4, -0.7%, -20%, -31%[inhibitor], 10%
COc1ccc(-c2ccc(C3C(C#N)=C(N)Oc4n[nH]c(C)c43)o2)cc1 (configuration not stated)
  46%[38.3 µM], ?, -4.3, -1.4%, -9%, -2%, -5%
